Hedgehog = Hh protein inhibition, biochemical readout – plate reader, single concentration, primary screen (AID 588832) | 8,000 tested, under 10 active | Biochemical plate reader assay, Hedgehog inhibition; hits give high values | inhibition, % at 30.3 µM; in the data active means inhibition from about 57%;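 further: 0% = neutral control wells and 100% = positive control wells; cholesterol-driven self-cleavage of fly hedgehog protein by fluorescence polarization; read one hour after cholesterol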
* = called active by the depositor.

Start of the data: the first 4 compounds as a preview:
What do the screens show for `Cc1cccc(N2CCN(C(=O)c3cc(S(=O)(=O)N4CCCC4)cn3C)CC2)c1C`?
Hedgehog: 6

What do the screens show for `C#CCn1c(=NC(=O)c2ccc(Cl)s2)sc2cccc(OC)c21`?
Hedgehog: -2

Results for COc1ccc(-c2noc(N3CCC(C(=O)NC(C)c4ccccc4)CC3)n2)cc1 (stereo unspecified) ?
Hedgehog: 15

How did O=C(NC1CCN(Cc2ccccc2)CC1)C1CCCN(c2nnc(-n3cccc3)s2)C1 (stereo unspecified) do in these assays?
Hedgehog: 0

This part in full, from the start:
What do the screens show for `Cc1cccc(N2CCN(C(=O)c3cc(S(=O)(=O)N4CCCC4)cn3C)CC2)c1C`?
Hedgehog: 6

What do the screens show for `C#CCn1c(=NC(=O)c2ccc(Cl)s2)sc2cccc(OC)c21`?
Hedgehog: -2

Results for COc1ccc(-c2noc(N3CCC(C(=O)NC(C)c4ccccc4)CC3)n2)cc1 (stereo unspecified) ?
Hedgehog: 15

How did O=C(NC1CCN(Cc2ccccc2)CC1)C1CCCN(c2nnc(-n3cccc3)s2)C1 (stereo unspecified) do in these assays?
Hedgehog: 0

Results for COc1ccc(OC)c2sc(NC(=O)c3ccc(S(=O)(=O)N(C)C)cc3)nc12 ?
Hedgehog: 4

How did CCc1cccc(NC2c3ccccc3C(=O)N2c2ccc(C)cn2)c1 (stereo unspecified) do in these assays?
Hedgehog: 5

What do the screens show for `Cc1ccc(-c2nc(NC(=O)CSc3nnc(C)s3)ns2)cc1`?
Hedgehog: 10

What do the screens show for `Cc1cc(Nc2cccc(Cl)c2C)n2ncnc2n1`?
Hedgehog: 17

How did Cn1c(=NC(=O)c2ccco2)sc2cccc(F)c21 do in these assays?
Hedgehog: 7

How did CC(=O)O[C@H]1C(=O)[C@@]2(C)C([C@H](OC(=O)c3ccccc3)[C@]3(O)C[C@H](OC(=O)[C@H](O)[C@@H](NC(=O)c4ccccc4)c4ccccc4)C(C)=C1C3(C)C)[C@]1(OC(C)=O)CO[C@@H]1C[C@H]2O (stereo partly specified) do in these assays?
Hedgehog: 5

How did COc1cc(CO)cc(Br)c1OCC(=O)O do in these assays?
Hedgehog: 5

Results for CCOC(=O)c1[nH]c(C)c(C(=O)N2CCOCC2)c1C ?
Hedgehog: 11

Results for CCC1CN(S(=O)(=O)c2ccc3c(c2)NC(=O)CC(=O)N3)c2cc(Cl)ccc2O1 (stereo unspecified) ?
Hedgehog: -1

How did O=C(Nc1ccc2nc3n(c(=O)c2c1)CCCC3)c1ccc(Cl)nc1 do in these assays?
Hedgehog: 0

Results for Cc1oc(-c2ccccc2F)nc1CS(=O)(=O)CC(=O)NCCCN1CCc2ccccc2C1 ?
Hedgehog: 20

Results for NC(=O)c1c(NC(=O)Cc2ccccc2)sc2c1CCN(Cc1ccccc1)C2 ?
Hedgehog: -5

What do the screens show for `CCOC(=O)N1CCN(C(=O)CSCC(=O)Nc2nc(-c3ccc(C)cc3)cs2)CC1`?
Hedgehog: -4

What do the screens show for `CN(C(=O)c1ccc2c(Cl)c3c(nc2c1)CCC3)c1ccccc1`?
Hedgehog: 5

Results for CCCCOC(=O)Cn1c(=O)oc2ccc(C)cc21 ?
Hedgehog: 6

What do the screens show for `Cc1cccc(NC(=O)CSc2nc3ccccc3nc2N2CCCC2)c1C`?
Hedgehog: 2

Structural class: the entries above with an aryl methoxy group (four)
What do the screens show for `C#CCn1c(=NC(=O)c2ccc(Cl)s2)sc2cccc(OC)c21`?
Hedgehog: -2

Results for COc1ccc(-c2noc(N3CCC(C(=O)NC(C)c4ccccc4)CC3)n2)cc1 (stereo unspecified) ?
Hedgehog: 15

Results for COc1ccc(OC)c2sc(NC(=O)c3ccc(S(=O)(=O)N(C)C)cc3)nc12 ?
Hedgehog: 4

How did COc1cc(CO)cc(Br)c1OCC(=O)O do in these assays?
Hedgehog: 5

More entries follow.
What do the screens show for `CC12C(=O)N(c3ccccn3)C(=O)C1C1C=CC2C1` (stereo unspecified)?
Hedgehog: 15

Results for COc1ccc(CCNC(=O)c2cc(S(=O)(=O)N3CCCCC3)c[nH]2)cc1OC ?
Hedgehog: 7

How did COc1ccc(CNC(=O)CCCn2nc(C)n3ccnc3c2=O)cc1 do in these assays?
Hedgehog: 5

Results for CC(C)c1nc(SCC(=O)N2CCCC2)c2c(=O)n(C)c(=O)n(C)c2n1 ?
Hedgehog: 5

Results for COc1ccc(-c2[nH]c(-c3ccc(C)cc3)nc2SCC(=O)NCc2ccco2)cc1OC ?
Hedgehog: 2

How did CC(Cc1c[nH]c2ccccc12)C(=O)O (stereo unspecified) do in these assays?
Hedgehog: 3

How did Cc1ccc2c(c1)N(C(=O)CCC(=O)N1CCOCC1)CCO2 do in these assays?
Hedgehog: 11

What do the screens show for `Cc1ccc(C2CC(c3cccc(C)c3)n3nc(N)nc3N2)cc1` (stereo unspecified)?
Hedgehog: -9

Results for O=C(c1cc(-c2cccc(O)c2)on1)N1CCc2ccccc2C1 ?
Hedgehog: 22

Results for CC1CCN(S(=O)(=O)c2nnc(NC(=O)c3cccc(Cl)c3)s2)CC1 ?
Hedgehog: 5

How did CCOC(=O)N1CCC(NC(=O)CS(=O)(=O)Cc2nc(-c3ccc(C)cc3)oc2C)CC1 do in these assays?
Hedgehog: 2

What do the screens show for `Cc1nnc(NC(=O)CSc2nc3c(c(=O)n2C)SC(C)C3)s1` (stereo unspecified)?
Hedgehog: 1

Results for Cc1ccc(NC(=O)CSc2nnc(Cc3cccn3C)n2-c2ccc(F)cc2)c(C)c1 ?
Hedgehog: 8

How did Cc1c(OCC(=O)N[C@@H](Cc2ccccc2)C(=O)O)ccc2c1oc(=O)c1ccccc12 do in these assays?
Hedgehog: 7

How did CCc1nnc(NC(=O)c2ccc(N3C(=O)CCC3=O)cc2)s1 do in these assays?
Hedgehog: 5

How did CCCOc1ccc(C(=O)Nc2cc(-c3nn4c(C)nnc4s3)ccc2C)cc1 do in these assays?
Hedgehog: 11

What do the screens show for `CCn1c(=O)cc(OCC(=O)N(C)c2ccccc2F)c2ccccc21`?
Hedgehog: 15

What do the screens show for `Cc1cc(=O)oc2cc(OC(C)C(=O)NCC3CCC(C(=O)O)CC3)c(Cl)cc12` (stereo unspecified)?
Hedgehog: 0

What do the screens show for `CCOc1ccc(C2CC(c3ccc(CC)cc3)n3nc(N)nc3N2)cc1` (stereo unspecified)?
Hedgehog: 10

How did Cc1cc(C(=O)O)ccc1[N+](=O)[O-] do in these assays?
Hedgehog: 18

What do the screens show for `Cc1nn(C)c(C)c1S(=O)(=O)N1CCC(C(=O)Nc2ccc3c(c2)OCCO3)CC1`?
Hedgehog: 12

What do the screens show for `Cn1cc(S(=O)(=O)N2CCOCC2)cc1C(=O)NCc1ccc(Cl)cc1`?
Hedgehog: 4

How did CC(NS(=O)(=O)c1ccc(F)cc1)C(c1cccs1)N1CCOCC1 (stereo unspecified) do in these assays?
Hedgehog: 3

What do the screens show for `O=C(Nc1ccc2nc3n(c(=O)c2c1)CCCC3)c1cncc(Br)c1`?
Hedgehog: 7

How did CC(=O)OC[C@]12CC[C@H]3[C@@](C)(CC[C@H]4C(C)(C)CCC[C@]34C)[C@@H]1CC(C1=CC(=O)OC1O)O2 (stereo partly specified) do in these assays?
Hedgehog: 5

What do the screens show for `CC1CCCCC1NC(=O)C1CCN(C(=O)c2sccc2-n2cccc2)CC1` (stereo unspecified)?
Hedgehog: 0

What do the screens show for `COc1cccc(-c2nc(CS(=O)(=O)CC(=O)NCCC(C)C)c(C)o2)c1`?
Hedgehog: 3

How did O=C(Cc1ccccc1)N(c1ccccc1)c1ccccc1 do in these assays?
Hedgehog: 5

How did COc1ccc(CCNC(=O)C(=O)NCC2OCCN2S(=O)(=O)c2ccc(Cl)cc2)cc1 (stereo unspecified) do in these assays?
Hedgehog: 0

Results for Cc1[nH]c2ccccc2c1Cc1nnc(SCc2ccccc2)o1 ?
Hedgehog: 38

What do the screens show for `COc1ccc2c(c1OC)C(=O)OC2C1c2c(cc3c(c2OC)OCO3)CCN1C` (stereo unspecified)?
Hedgehog: 5

How did COc1ccc(NC(=O)NCCCN2CCc3ccccc3C2)cc1 do in these assays?
Hedgehog: 17

How did COc1ccc2c3c([nH]c2c1)C1CC2C(CC(O)C(OC)C2CO)CN1CC3 (stereo unspecified) do in these assays?
Hedgehog: 5

What do the screens show for `COc1cc2ccc(=O)oc2c(CC=C(C)C)c1OC`?
Hedgehog: 7

Results for CCCCCCSc1nc2c(c(=O)[nH]c(=O)n2C)n1C ?
Hedgehog: 4

Results for COc1cccc(C2CC(=O)N3CN(c4cccc(Cl)c4C)CSC3=C2C#N)c1OC (stereo unspecified) ?
Hedgehog: 5

Results for CC1(C)CC(=O)c2sc(NC(=O)C3COc4ccccc4O3)nc2C1 (stereo unspecified) ?
Hedgehog: 5

How did Cn1c(=O)cc(OCCCC(=O)NCc2ccc3c(c2)OCO3)c2ccccc21 do in these assays?
Hedgehog: 5

How did COc1ccc2[nH]c3c(c2c1)CCN1C(=O)N([C@@H](C)C(=O)NCc2ccco2)C(=O)[C@]31C do in these assays?
Hedgehog: 5

What do the screens show for `Cc1ccc(C)c(NC(=S)NCc2ccc3[nH]c4c(c3c2)CCCC4)c1`?
Hedgehog: 5

How did Cc1ccc(Cn2c(C)c3cnn(CC(=O)NCCN4CCOCC4)c(=O)c3c2C)cc1 do in these assays?
Hedgehog: 5

How did C[N+](C)(C)C(Cc1ccccc1)C(=O)[O-] (stereo unspecified) do in these assays?
Hedgehog: 5

Results for CCc1cc(=O)oc2cc(C)cc(OCC(=O)N[C@@H](CSCc3ccccc3)C(=O)O)c12 ?
Hedgehog: 2

What do the screens show for `CCOc1ccc(OCC)c(Nc2cc(C)nc3nc(C)nn23)c1`?
Hedgehog: 11

What do the screens show for `CCOc1ccc(CNC(=O)c2ccc3c(c2)N(CC)CCS3)cc1`?
Hedgehog: 11

How did Cc1c(Cc2ccccc2)c(=O)oc2c(C)c(OC(C)C(=O)N[C@@H](Cc3ccccc3)C(=O)O)ccc12 (stereo partly specified) do in these assays?
Hedgehog: 9

What do the screens show for `COCOc1cc(O)c(C(=O)/C=C/c2ccccc2)c(OCOC)c1`?
Hedgehog: 3

What do the screens show for `COc1cccc(C(=O)Nc2nnc(S(=O)(=O)N3CCCCC3)s2)c1`?
Hedgehog: 5

Results for CCn1cc(C(=O)N2CCCC2)c(=O)c2cc(S(=O)(=O)N(C)C)ccc21 ?
Hedgehog: 8

Results for CCc1ccc(Cn2nnc(C(=O)NCc3ccccc3OC)c2N)cc1 ?
Hedgehog: 6

What do the screens show for `Cc1cc(=O)oc2cc(OCC(=O)N3CCC(C(N)=O)CC3)ccc12`?
Hedgehog: 5

Results for CCn1c(SCc2ccc(C(=O)OC)o2)nnc1-c1c[nH]c2ccccc12 ?
Hedgehog: 6

How did CN(CC(CC(=O)Nc1nncs1)c1ccccc1)S(=O)(=O)c1ccc(Br)cc1 (stereo unspecified) do in these assays?
Hedgehog: 21

What do the screens show for `Cc1cc(=O)oc2c(C)c(OC(C)C(=O)NC(Cc3c[nH]c4ccc(O)cc34)C(=O)O)ccc12` (stereo unspecified)?
Hedgehog: 11

How did CC(=O)c1ccc(Cl)c(Cl)c1Cl do in these assays?
Hedgehog: 5

What do the screens show for `CCc1ccc(NC(=O)Cn2ccn(-c3cccc(Cl)c3)c(=O)c2=O)cc1`?
Hedgehog: 19

Results for Cc1ccc(C(c2sc3nc(C)nn3c2O)N2CCN(CCO)CC2)cc1 (stereo unspecified) ?
Hedgehog: 10

What do the screens show for `COC(=O)c1cc(-c2ccc(Br)cc2)on1`?
Hedgehog: 3

Results for CC(C)CNS(=O)(=O)c1ccc(S(=O)(=O)N2CCN(CCC#N)CC2)cc1 ?
Hedgehog: 0

How did COc1cccc(C2c3[nH]c4ccccc4c3C[C@H]3C(=O)N(c4ccccc4C(=O)NCCCN4CCOCC4)C(=O)N23)c1 (stereo partly specified) do in these assays?
Hedgehog: 9

Results for O=C(CSc1cn(Cc2ccccc2)c2ccccc12)NCc1ccc(F)cc1 ?
Hedgehog: 19

Results for COc1cccc(-c2nc3n(n2)C(c2ccccc2Cl)C(C(N)=O)=C(C)N3)c1 (stereo unspecified) ?
Hedgehog: 16

How did Cc1cc(C)cc(NS(=O)(=O)c2coc(C(N)=O)c2)c1 do in these assays?
Hedgehog: 8

How did COc1cc(NC(=O)CN2C(=O)C(c3ccccc3)=NC2(C)C)cc(OC)c1 do in these assays?
Hedgehog: 11

How did CN(C)C(CNS(=O)(=O)c1ccc(F)cc1)c1cccnc1 (stereo unspecified) do in these assays?
Hedgehog: 5

Results for CCOC(=O)Cn1c(=O)oc2cc(S(=O)(=O)Nc3ccc(N(CC)CC)cc3C)ccc21 ?
Hedgehog: 11

How did CCOc1ccc(C2CC(c3cccc(Cl)c3)n3nc(N)nc3N2)cc1 (stereo unspecified) do in these assays?
Hedgehog: 17

Results for C/C=C/c1ccc(O)c(OC)c1 ?
Hedgehog: 11

How did COc1ccc(NC(=O)CC2C(=O)N(c3cccc(OC)c3)C(=O)N2C(C)C)cc1 (stereo unspecified) do in these assays?
Hedgehog: 4

Results for COc1cc2c(cc1OC)C1=C(C#N)CN(CC(=O)O)CN1CC2 ?
Hedgehog: -2

How did CCS(=O)(=O)c1nc2ccccc2n1Cc1ccccc1Cl do in these assays?
Hedgehog: 0

What do the screens show for `CCCCN(C)CCNC(=O)Cn1c(=O)sc2ccccc21`?
Hedgehog: 12

How did CC1CCc2nn(CC(=O)NC3CCCC(C)C3C)cc2C1 (stereo unspecified) do in these assays?
Hedgehog: -15

The list is partial; count on the stated rates, not on these rows.
